# Sa helicase inh: blocks Staphylococcus aureus DNA helicase. purified S. aureus helicase, fluorescence unwinding assay; about half of the hits fall short of the stated cut. inhibition, %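 (tested at about 80 µM)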. actives 0.05% (n = 120,000). AID 485395;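 active = both duplicates at 50% or more, or one of them with a favoured structure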;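 also: 0% = mean of negative control wells and 100% = mean of positive control wells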
# MgrA DNA FP: S. aureus MgrA-DNA binding modulation. fluorescence polarization. inhibition, %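 (about 10 µg/mL by stock and volumes)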. actives 0.13% (n = 84,000). AID 602314;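 active = above 50% in either of two replicates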;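 also: 0% = protein plus DNA without compound and 100% = DNA alone without protein; higher means less MgrA bound to DNA so lower polarization; one replicate is shown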
# The depositor's hits bear a star; . = no result given; & = joins results of further samples. The list is partial; the hit share may differ from the screen's.
mol	MgrA DNA FP	Sa helicase inh
COc1ccc2c(c1)CCC1C2CCC2(C)C(O)CCC12 (stereo not drawn)	-3.0	.
CC1=C(C(=O)OC(C)C)C(C)C(C(=O)OC(C)C)=C(C)N1	-0.5	8
O=C(Oc1cccnc1)c1cccc(Br)c1	-1.5	-6
CNC(=O)Nc1cn(C)c2ccccc12	.	-15
N#C/C(=C\NCc1cc(C(F)(F)F)cc(C(F)(F)F)c1)S(=O)(=O)c1ccc(Cl)cc1	-0.9	.
O=C(Cc1cccc2ccccc12)N(Cc1nnc(-c2ccccc2Cl)o1)C1CC1	.	17
COc1cc2c(cc1OC)C(CC#N)=NCC2	1.1	9
Cc1ccc(-c2cccc(N)c2)o1	-0.6	4
CC(CNC(=O)CC1=NS(=O)(=O)c2ccccc2N1)c1ccccc1 (stereo not drawn)	.	-33
O=C(Nc1cccc(-c2csc(NC(=O)c3ccc(F)cc3)n2)c1)c1ccc(F)cc1	-0.4	5
CCOC(=O)N1CCC(=NNC(=O)CSc2nnc(-c3ccccc3)n2-c2ccccc2)CC1	.	8
CC(C)C1=C2CCCCC2NC(=O)N1 (stereo not drawn)	-1.8	3
CN1CCN(NC(=S)Nc2ccccc2)CC1	3.2	-7
O[C@@H]1[C@@H](O)C=C2CCN3Cc4cc5c(cc4[C@H]1C23)OCO5 (stereo partly drawn)	0.8	.
COc1ccc(Cl)cc1C(=O)NCc1ccc(C(=O)O)cc1	-3.1	9
N#Cc1ccc(CN2C(=O)NC3(CCCc4ccccc43)C2=O)cc1 (stereo not drawn)	.	-14
C=CCN1C(=O)/C(=c2\sc3n(c2=O)C(c2ccc(OC(C)=O)cc2)C(C(=O)OCC)=C(C)N=3)c2ccccc21 (stereo not drawn)	0.6	.
CCc1ccc(N/N=C(\C#N)C(=O)N2CCN(C)CC2)cc1	.	-4
O=C1c2ccccc2C(=O)N1CCc1nn2c(-c3cccnc3)nnc2s1	23	6
Cc1oc(C(C)(C)C)cc1C(=O)Nc1ccc(N2CCOCC2)cc1	-0.8	.

# (cont.)
mol	MgrA DNA FP	Sa helicase inh
Cc1c(-c2nn3c(Cc4ccccc4)nnc3s2)nnn1-c1ccccc1	.	10
CCCCc1noc(-c2ccc(OC(=O)c3ccccc3)cc2)n1	-0.8	-3
O=c1oc2cc(O)ccc2s1	1.8	.
O=C(Nc1ccccc1N1CCCCC1)c1ccc(F)cc1	-0.1	-2
Cc1nn(Cc2cccc(C(=O)O)c2)c(C)c1Br	-1.1	.
CCOC(=O)C1CCN(C(=O)Cn2cc(C(F)(F)F)cc(Cl)c2=O)CC1	.	15
O=c1c2ccccc2[nH]c(=S)n1C1CCCC1	0.2&0.2	4&5
CC(OC(=O)C12CC3CC(CC(O)(C3)C1)C2)C(=O)N1CCCc2ccccc21 (stereo not drawn)	.	-10
c1ccc(-c2nc3ccccc3[nH]2)cc1	.	11
C=CCn1c(C(=O)OCC)cc2oc(C)cc21	1.4	-14
O=C1OC2(CCCC2)OC(=O)C1=Cc1ccc(OCc2ccccc2)cc1	21	2
CCCCOC(=O)c1cc(O)c(O)c(O)c1	0.5	15
Cn1ccnc1SCC(=O)N1CCc2ccccc21	-0.6	-18
CC(C)n1c(=N)c(C(=O)NC2CCCC2)cc2c(=O)n3ccccc3nc21	.	-29
Cc1cc2cc(CNC(=S)NCc3ccccc3)ccc2[nH]1	-0.9	7
COCc1cc(C)nc2sc(C(=O)OC)c(-n3cccc3)c12	0.5	-1
Oc1ccccc1-c1cc(C(F)(F)F)nc(-c2ccccc2)n1	.	28
CN/N=C/c1cc2cc(OC)ccc2nc1Cl	.	8
C(=C\c1c[nH]c2ccccc12)/c1ccccc1	-3.9	.
NC(=O)c1c(NC(=O)C2=COCCO2)sc2c1CCC2	.	9

# Going on with the list:
mol	MgrA DNA FP	Sa helicase inh
CC(=O)NC12CC3CC(C1)CC(C(=O)OCC(=O)Nc1ncc(Cl)c(C)c1Cl)(C3)C2	.	-11
N#Cc1nc(NC(=O)c2cc(-c3cccs3)nc3ccccc23)[nH]c1C#N	.	14
O=C(CSc1ccccn1)Nc1c(C(=O)C2CC2)oc2ccccc12	.	-19
COc1ccc(CNc2cc(C)ccn2)cc1	-0.2	-11
COC(=O)c1cc(=O)nc(N)s1	-0.5	.
CCCNC(=O)CSc1nccn1Cc1ccco1	.	-4
Cc1cc(C)nc(NOCc2ccccc2)n1	-4.0	26
O=C(Cc1cccc2ccccc12)NC1CC1	-3.1	-3
CCOC(=O)C1=C(c2ccccc2)OC(N)=C(C#N)C1CC(C)C (stereo not drawn)	.	-9
NS(=O)(=O)c1ccc(CNC(=O)c2ccccc2)s1	.	21
CCOc1ccc2nc(NCCNC(=O)Nc3cccc(Cl)c3)c(C#N)cc2c1	0.9	-1
Cc1ccc(C(C)NC(=O)C(C)(C)C)c(C)c1 (stereo not drawn)	-1.4	.
O=S(=O)(Nc1nc2ccccc2[nH]1)c1ccc2ccccc2c1	1.5	-18
Cc1cc(C)c2c(-n3cccc3)nn(CC(=O)NC3CC3)c2n1	.	9
CC(O)CNCc1cccc2ccccc12 (stereo not drawn)	1.8	16
Cn1c(=O)cc(OCC(=O)NCc2cccs2)c2ccccc21	.	-1
C=CCN1C(=O)S/C(=C\c2ccc(OCC(=O)OC)cc2)C1=O	1.4	12
CN(C)c1ccc(-c2nc3c4ccccc4c4ccccc4c3n2C)cc1	4.8	11
O=C(/C=C/c1ccco1)OCC1CCCN2CCCCC12 (stereo not drawn)	4.2	4
Cc1cc(C)nc(/N=C(/NC(=O)c2ccccc2)N2CCC(C(N)=O)CC2)n1	.	-4

# Another view of part of the listing above:
# Screens in order – MgrA DNA FP | Sa helicase inh
- C=CCN1C(=O)S/C(=C\c2ccc(OCC(=O)OC)cc2)C1=O
 : 1.4 | 12
- Cc1ccc(C(C)NC(=O)C(C)(C)C)c(C)c1 (stereo not drawn)
 : -1.4 | .

# Next records
mol	MgrA DNA FP	Sa helicase inh
C(=NC1=NN(c2ccccc2)CC1)N1CCCCC1	.	-11
O=C(c1ccc(F)cc1)N(C(=O)c1ccc(F)cc1)c1ncccn1	-1.0	-18
N#Cc1ccc(C2N(c3ccccc3)CCN2c2ccccc2)cc1	-1.8	10
O=C(O)c1ncoc1-c1ccccc1Cl	-1.1	.
O=S(=O)(Nc1nc2ccccc2nc1Cl)c1ccccc1	.	12
O=C(CSc1ncccc1C(=O)NCC1COc2ccccc2O1)Nc1ccc2c(c1)OCO2 (stereo not drawn)	.	33
CCc1ccc(C)nc1NC(=O)c1snnc1C	-0.5	.
CN(C1CCCCC1)S(=O)(=O)c1ccccc1NC=C(C#N)C#N	.	-8
O=C(c1c[nH]c2c(F)cccc2c1=O)N1CCNCC1	1.2	3
Cc1nnsc1-c1nc(-c2ccc(Cl)s2)cs1	0.1	.
CCCOC(=O)C1=C(C)NC2=C(C(=O)CC(c3ccc(OC)cc3)C2)C1c1ccc(OC)cc1OC (stereo not drawn)	2.7	.
O=C(Cn1c(=O)oc2ccccc21)OCC(=O)N(C1=CCCCC1)C1CC1	.	1
CC(C)c1cc(NC2CCCC2)n2c(nc3ccccc32)c1C#N	.	1
COc1ccccc1C(=O)OCC(=O)NC1CCCC1	-2.5	-9
COc1ccc(N=C2SC(C(=O)Nc3ccc(OC)cc3)CC(=O)N2CCc2ccccc2)cc1 (stereo not drawn)	-1.9	.
O=S(=O)(CCSc1ncccn1)c1ccc(F)cc1	-0.6	.
O=C(Nc1ccccc1)C1CCCCC1	-15	6
O=C(/C=C/C(=O)N1CCCc2ccccc21)N1CCN(c2ccc(F)cc2)CC1	.	-2
Cc1cc(C)nc(/N=C(/N)N2CCC(C)CC2)n1	0.4	9
CCN1CCN(C(=O)c2nc(-c3ccc(C)cc3)n3c2CCCCC3)CC1	.	-24

# Reprinted from the part before: three entries, then new ones.
mol	MgrA DNA FP	Sa helicase inh
O=C(/C=C/C(=O)N1CCCc2ccccc21)N1CCN(c2ccc(F)cc2)CC1	.	-2
Cc1cc(C)nc(/N=C(/N)N2CCC(C)CC2)n1	0.4	9
CCN1CCN(C(=O)c2nc(-c3ccc(C)cc3)n3c2CCCCC3)CC1	.	-24
CC(C)(C)NC1C=C(c2ccccc2)Sc2nc(-c3ccccc3)cn21 (stereo not drawn)	-2.0	2
O=C(O)CN1CCc2ccccc2C1	1.5	5
CC(C)(C)CC(C)(C)N1CNC(=S)NC1	-0.5	.
CCN1CCSc2ccc(C(=O)NCc3ccccn3)cc21	4.0	8
COc1ccc(OC)c(NC(=O)CSc2nnc(NC(=O)C3CC3)s2)c1	1.8	-2
COCC(C)n1c(COc2ccccc2F)nnc1SCC(=O)c1ccc2c(c1)NC(=O)CO2 (stereo not drawn)	.	11
Cc1ccc(C(=O)OCC(=O)N2CCCC2)cc1	0.4	-11
Cc1ccc(CNC(=O)c2cc3c(=O)[nH]c4ccccc4c3n2C)cc1	.	-41
CCn1nc(CC(=O)Nc2nnc(CC(=O)N3CCCC3)s2)c2ccccc2c1=O	-0.2	-5
CC1CCCC(C)N1C(=O)CSc1ncccn1 (stereo not drawn)	.	4
COC(=O)CN(C)S(=O)(=O)c1c(C)cc(C)cc1C	0.9	22
Cc1ccc(/C=C/C(=O)OC(C)C(=O)Nc2ncc(Cl)cc2Cl)o1 (stereo not drawn)	.	-1
O=c1cc(-c2ccncc2)oc2ccccc12	.	14
CC1=Nc2ccccc2N=C(N)C1c1ccccc1 (stereo not drawn)	.	-3
CCOc1ccc(C(=O)/C=C/C(=O)Nc2ccc(F)cc2)cc1	0.2	.
CCOc1cc2c(cc1CNC(CN1CCOCC1)c1ccc(C)cc1)OC(C)C2 (stereo not drawn)	.	-6
Brc1ccc(-n2cnc(-c3ccccc3)c2)cc1	-2.5	-7
CCN(C1=NS(=O)(=O)c2ccccc21)N(CC)S(=O)(=O)c1ccc(C)cc1	0.2	-13
N#Cc1ccc(C(=O)OCC(=O)NCc2ccccc2)cc1	-1.7	-8
O=C(CCS(=O)(=O)c1ccccc1)Nc1ccc2nc3n(c(=O)c2c1)CCCCC3	.	7

# Next records follow.
mol	MgrA DNA FP	Sa helicase inh
COC(=O)c1cc(-c2ccc(OC)c(OC)c2)nc2c1cnn2C(C)C	.	14
COc1ccc(NC(=O)COC(=O)c2nn(C)c(=O)c3ccccc23)cc1	.	-10
O=C(COC(=O)Cc1ccsc1)NCc1ccccc1	-1.8	0
O=C(Cn1cnc2ccccc21)N/N=C/c1ccccc1	.	-10
CSc1cccc(NC(=O)CCSc2ccccc2)c1	3.9	30
CCC(=O)[C@@]1(C)[C@H](C)C[C@H]2[C@@H]3CCC4=CC(=O)C=C[C@]4(C)[C@H]3[C@@H](O)C[C@@]21C	-1.1	.
COc1ccc2c(C(F)(F)F)cc(SCC(=O)N3CCCC3)nc2c1	.	-15
Cc1cc(NC(=O)C2=COCCO2)no1	.	-1
CC(OC(=O)c1ccc(NC(=O)CC#N)cc1)C(=O)Nc1ccccc1 (stereo not drawn)	.	-10
CCN(CC)C(=O)Cn1cnc2sc(C(=O)N3CCN(c4ccc(F)cc4)CC3)c(C)c2c1=O	0.8	6
COc1cc(-c2nn3cc(-c4ccccc4)nc3s2)cc(OC)c1OC	.	11
O=C(CN1CCOCC1)Nc1ccccc1	1.6	2
Cc1ccc(S(=O)(=O)Cc2csc(N)n2)cc1	-0.7	2
Cc1ccc(-c2nn(CC(=O)NCc3ccccn3)c(=O)c3ccccc23)cc1S(=O)(=O)N1CCCCC1	.	4
COC(=O)c1ccc2c(=O)n(CCC3=CCCCC3)c(SCC(=O)C(C)(C)C)nc2c1	1.5	-2
CC(C)n1c(O)c(N=NC(=O)Cc2csc(N3CCOCC3)n2)c2ccccc21	.	-6
O=C(CCSc1ccc(F)cc1)NNc1ccc(C(=O)O)cc1	.	8
CCCCN(CC)c1cn[nH]c(=O)c1Cl	.	1
Cc1cccn2c(=O)c(/C=C(\C#N)C(=O)N3CCOCC3)c(Oc3ccccc3)nc12	.	11
O=C(CN1C(=O)CC(c2ccccc2)S(=O)(=O)c2ccccc21)Nc1ccccc1C(F)(F)F (stereo not drawn)	-0.9	5

# Next compounds follow:
mol	MgrA DNA FP	Sa helicase inh
Cc1coc2cc3oc(=O)c(CCC(=O)NCc4ccccc4)c(C)c3cc12	.	-27
O=S(=O)(c1cc(Br)c(Br)s1)N1CCCCC1	-0.8	.
CCc1cccc(-n2c(=O)c3cccnc3n2CC(=O)Nc2ccccc2OC)c1	.	9
CC1(C)CC(=O)C2=C(C1)OC(N)=C(C#N)C2c1cn(Cc2cccc(F)c2)c2ccccc12 (stereo not drawn)	3.5	9
CCc1ccc(C=Nc2ccc(O)cc2)s1	1.2	.
Cc1cccc(-n2c(=O)c3c4c(sc3n3c(=S)[nH]nc23)CCC4)c1	4.0	2
CC(C)c1ccc(NC(=O)C(c2ccc3c(c2)OCO3)N2CCC3(CC2)OCCO3)cc1 (stereo not drawn)	.	-23
Cc1ccc(-c2cc(=O)c3ccc4ccccc4c3o2)cc1	-1.4	12
CCN(C(=O)c1ccc(OC(C)=O)cc1)c1ccccc1C	-0.3	1
Cc1ccc(S(=O)(=O)NC(CC(C)C)C(=O)N2CCC(C)CC2)cc1 (stereo not drawn)	.	-14
Cn1c(SCc2ccccc2)nnc1C1CCN(C(=O)Nc2ccccc2)CC1	-3.4	-2
Cc1cc(=O)oc2c1c(C)nn2-c1ccccc1	1.2	.

# Individual results from above.
# MgrA DNA FP with `Cc1cc(=O)oc2c1c(C)nn2-c1ccccc1` = 1.2
# MgrA DNA FP with `Cc1cccc(-n2c(=O)c3c4c(sc3n3c(=S)[nH]nc23)CCC4)c1` = 4.0
# MgrA DNA FP with `O=S(=O)(c1cc(Br)c(Br)s1)N1CCCCC1` = -0.8
# MgrA DNA FP with `Cc1ccc(-c2cc(=O)c3ccc4ccccc4c3o2)cc1` = -1.4
